# Source: PubChem
# VDR inhibitor: blocks the human vitamin D receptor; P11473; VDR-SRC2-3 peptide fluorescence polarization, 2 h; actives 0.93% (n = 400,000); Potency, µM, for inactives: max response, negative = inhibition, actives largely listed as inhibitors; active means well fitted inhibition curve with a large enough effect; inconclusive means small, poorly fitted or top-dose-only effect, or another doubt; inactive means no such curve, though single readings can be large or run the other way; further: series mostly up to about 120 µM
# Target sequence (P11473 whole entry, looked up): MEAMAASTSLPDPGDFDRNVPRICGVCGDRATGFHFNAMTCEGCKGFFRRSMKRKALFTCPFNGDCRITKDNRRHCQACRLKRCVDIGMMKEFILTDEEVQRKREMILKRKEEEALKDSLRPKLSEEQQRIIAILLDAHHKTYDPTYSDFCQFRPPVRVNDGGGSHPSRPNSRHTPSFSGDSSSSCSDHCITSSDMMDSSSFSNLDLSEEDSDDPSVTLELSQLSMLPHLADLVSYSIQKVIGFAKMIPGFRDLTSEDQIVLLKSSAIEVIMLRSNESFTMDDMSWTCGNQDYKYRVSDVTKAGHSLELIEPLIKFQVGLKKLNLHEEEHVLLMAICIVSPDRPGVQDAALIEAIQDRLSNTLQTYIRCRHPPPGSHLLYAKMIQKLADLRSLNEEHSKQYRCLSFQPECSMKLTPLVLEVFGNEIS
#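 VDR–SRC2-3 interaction, FP format. Cmpds 23 nl via pintool, brief spin, 2 h ambient incubation.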
# * hit, by the source's call; ? = inconclusive; & = joins results of further samples. On the % scale 0 is the no-effect control and ±100 the full control effect; potency means the concentration at half of the fitted maximal effect.
canonical_smiles	VDR inhibitor
CCOc1cccc(/C=N/N2CCN(c3ccc(Cl)cc3)CC2)c1O	10%
CCOC(=O)c1ccc(-c2nnc(-c3ccc(Cl)cc3Cl)o2)cc1	-1%
COC(=O)[C@@H](Cc1ccccc1)NC(=O)NCCc1c[nH]c2ccccc12	-16%
CCCn1c(CCc2ccccc2)nnc1SCC(=O)N1CCCC1	4%
COC(=O)C1CCN(C(=O)/C=C/c2ccc(OC)cc2)CC1	6%
COc1cccc(NC(=O)CNS(=O)(=O)c2ccc3nc(C)sc3c2)c1	-15%
CN(Cc1cc([N+](=O)[O-])ccc1Cl)C(=O)C[n+]1ccccc1	-18%
CN(Cc1cnccn1)C(=O)c1cc(COc2cccc(C(F)(F)F)c2)on1	14%

# Some of the entries so far, as labelled records.
SMILES: CCOC(=O)c1ccc(-c2nnc(-c3ccc(Cl)cc3Cl)o2)cc1
  VDR inhibitor: -1%
SMILES: CCCn1c(CCc2ccccc2)nnc1SCC(=O)N1CCCC1
  VDR inhibitor: 4%
SMILES: COC(=O)[C@@H](Cc1ccccc1)NC(=O)NCCc1c[nH]c2ccccc12
  VDR inhibitor: -16%
SMILES: CCOc1cccc(/C=N/N2CCN(c3ccc(Cl)cc3)CC2)c1O
  VDR inhibitor: 10%

# (further entries)
canonical_smiles	VDR inhibitor
CCOC(=O)N1CCC(N2C(=O)c3ccc(C(=O)Nc4ccc(OC)c(OC)c4)cc3C2=O)CC1	2%
Cc1ccc(-c2nc(Cl)nc3ccccc23)cc1	17%
O=S(=O)(Nn1cnnc1)c1ccc2ccccc2c1	-5%
CCCc1cc(C(=O)Nc2c(C)nn(Cc3ccc(C)cc3)c2C)no1	-21%
COc1ccc(C(=O)N2CCN(Cc3cc(OC)ccc3OC)CC2)cc1	-14%
O=C(c1ccc(CN2CCc3ccccc3C2)cc1)N1CCCCC1	14%
N/C(=N\OC(=O)c1ccccc1)c1cccnc1	-6%
CC(=O)N=C1C=CC(=CN(O)C(C)(C)Cc2ccccc2)C=C1	-4%

# The listing continues:
canonical_smiles	VDR inhibitor
O=C(COC(=O)CNC(=O)c1ccccc1F)Nc1ncc(Cl)cc1Cl	-5%
O=C(NCc1cccs1)c1cc2ccccc2o1	-17%
COc1ccc(C(=O)Nc2cc3c(cc2C#N)OCO3)cc1S(=O)(=O)NCc1ccco1	0%
COc1ccc(C2CN=NC23CCCc2ccccc2C3=O)cc1 (centres undefined)	6%
CC1=C(C(=O)c2ccccc2)C(c2cn(-c3ccccc3)nc2-c2ccc(Cl)cc2)NC(=S)N1 (centres undefined)	?
Cc1ccc(NC(=O)CSc2nc3c(sc4ccccc43)c(=O)n2CCCC(=O)NC2CCCC2)cc1C	-1%
CCOC(=O)[C@@H]1[C@H]2COc3cc(OC)ccc3[C@@H]2N2C(=O)N(c3ccc(Cl)cc3)C(=O)[C@@]12C	7%
CCCc1cc(=O)oc2cc(C)cc(OC(C)C(=O)NCC(O)c3ccccc3)c12 (centres undefined)	6%

# The list continues.
canonical_smiles	VDR inhibitor
COc1ccc(NS(=O)(=O)c2ccc(NS(=O)(=O)c3ccc(C)cc3)cc2)nn1	17%
CC12CCC(C/C1=N/OC(=O)c1cccc([N+](=O)[O-])c1)C2(C)C (centres undefined)	-3%
Cc1ccc(F)c(NC(=O)c2ccc(Cn3cc(Cl)cn3)cc2)c1	-3%
CCOc1c(Br)cc(C2CC(=O)Nc3cc4c(cc32)OCO4)cc1OC (centres undefined)	-13%
COc1ccc(C(=O)C[n+]2ccc3c(c2)nc(-c2cc(OC)c(OC)cc2OC)n3C)cc1	-4%
O=C(NCCN1CCCCC1)Nc1ccccc1	-9%
CCCCc1ccc(NC(=O)N[C@@H](CC(C)C)C(=O)O)cc1	-3%
CCN(CC)c1ccc(/C=C2\SC(=O)N(C(C)C)C2=O)o1	32µM*

# Further records.
canonical_smiles	VDR inhibitor
CCN(CC)S(=O)(=O)c1cccc(NC(=O)c2cc(=O)[nH]c3ccccc23)c1	6%
COc1ccccc1NC(=O)c1cc2cc(Br)ccc2oc1=N	89µM*
CC1=CC(C)(C)Nc2ccc(OC(=O)CN3C(=O)C4CCCCC4C3=O)cc21 (centres undefined)	-22%
COC(=O)c1ccc(/C=N/Nc2nc(-c3ccccc3)cs2)cc1	-2%
CC(c1ccccc1)N1CCc2[nH]c(=S)[nH]c(=O)c2C1 (centres undefined)	-6%
CCSc1nnc2c(n1)OC(c1ccc(C)cc1)N(C(C)=O)c1ccccc1-2 (centres undefined)	5%
O=C(CSc1nc2c(c(=O)[nH]1)CCC2)Nc1ccccc1F	7%
CCOc1ccc(C(=O)Nc2nnn(CC)n2)cc1	2%

# Shown field by field: 2 of the compounds above.
COc1ccccc1NC(=O)c1cc2cc(Br)ccc2oc1=N
- VDR inhibitor = 89µM*

CC1=CC(C)(C)Nc2ccc(OC(=O)CN3C(=O)C4CCCCC4C3=O)cc21 (centres undefined)
- VDR inhibitor = -22%

# The listing continues.
canonical_smiles	VDR inhibitor
CN(C)CCCN1c2ccccc2C(C)(C)c2ccccc21	4%
Cc1noc(/C=C/N(C)C)c1S(=O)(=O)N(C)CC(=O)NC1CCCCC1	3%
CCOC(=O)COc1nc(Nc2ccccc2C)nc(N(C)C)n1	1%
O=S(=O)(c1cccs1)N1CCN(CCOc2ccccc2)CC1	1%
CC(NC(=O)CN1C(=O)NC2(CCCCCCC2)C1=O)c1ccccc1 (centres undefined)	6%
Fc1ccc(-c2nc(Nc3ccc(F)c(Cl)c3)nc3c2COc2ccccc2-3)cc1	-6%
CCOC(=O)C1=C(C)NC(=O)CC1c1cc2c(cc1[N+](=O)[O-])OCO2 (centres undefined)	-2%
COc1ccc(C)cc1NC(=O)c1ccc(CN2CCN(c3ccccc3)CC2)cc1	-6%

# (listing goes on)
canonical_smiles	VDR inhibitor
CC(C)(C)N(Cc1ccccc1)C(=O)COC(=O)CN1C(=O)C2CC=CCC2C1=O (centres undefined)	1%
COC(=O)c1ccc(COc2ccc(/C=N/N3CCN(C)CC3)cc2)cc1	2%
CC(C)(Oc1ccc(CCNC(=O)c2ccc(-c3ccccc3)o2)cc1)C(=O)O	6%
O=c1ccc2ccccc2[nH]1	-1%
Cc1ccc2c(c1C)NC(=O)C2(O)CC(=O)c1ccc2c(c1)OCO2 (centres undefined)	-18%
O=C(/C=C/Nc1ccc(F)cc1)c1cccs1	-8%
CCC(=O)N1c2ccccc2CC1C(=O)NCc1ccc(N(C)C)cc1 (centres undefined)	10%
Cc1nnc(SCc2ccccc2Cl)n1CC1CCCO1 (centres undefined)	-3%

# Other structures:
canonical_smiles	VDR inhibitor
Cc1ccc(S(=O)(=O)NCC(=O)NC2CC2)cc1	-12%
CCOC(=O)N(Cc1ccccc1)C1CC1	-20%
Cc1oc(-c2cc(F)ccc2F)nc1CN(C)Cc1ccc2nccnc2c1	15%
COc1cccc(-c2noc(COc3cccc(C)c3C)n2)c1	7%
Cc1ccc(CN(C)C(=O)c2cc(COc3cccc(C(F)(F)F)c3)on2)o1	89µM*
Nc1nc(-c2ccccc2)nc2sc3c(c12)CCCC3	-7%
Cc1nn(Cc2ccc(C(=O)Nc3ccccc3F)cc2)c(C)c1Cl	-1%
COc1ccc(C(CNC(=O)c2oc3ccc(F)cc3c2C)N2CCCCC2)cc1 (centres undefined)	-15%

# Remaining list, next part
canonical_smiles	VDR inhibitor
CC12CCC(C(=O)NCc3ccccc3)(OC1=O)C2(C)C (centres undefined)	2%
Cc1ccc(-c2cnn3c(N4CCOCC4)cc(C)nc23)cc1	0%
C#CCOCCOCCOCCNc1nc(N2CCOCC2)nc(N2CCN(C(=O)[C@H](CCCCN)n3cc([C@@H](N)CC(C)C)nn3)CC2)n1	-10%
CCc1nc(SCC(=O)N2CCc3ccccc32)c2oc3ccccc3c2n1	3%
CCC(Br)C(=O)Nc1ccc(OC)cc1 (centres undefined)	-9%
O=C(O)CCN=C1CCCc2ccccc2N1	11%
CCOc1ccc2nc(N(CCN(CC)CC)C(=O)c3cccc([N+](=O)[O-])c3)sc2c1	13%
CCOCCCNC(=O)C(c1ccc(Cl)cc1)N(Cc1ccc2c(c1)OCO2)C(=O)c1ccccc1O (centres undefined)	-1%

# (next part)
canonical_smiles	VDR inhibitor
Cc1ccc(S(=O)(=O)Nc2cccc(C(=O)NCCN3CCOCC3)c2)cc1F	-13%
O=C(NC1CCCC1)c1cccc(S(=O)(=O)N2CCOCC2)c1	-8%
COc1ccc(C(=O)COC(=O)c2ccc(OC)c(OC)c2)cc1OC	0%
Cn1cc([N+](=O)[O-])c(C(=O)N/N=C/c2ccncc2)n1	16%
CCN(CC)S(=O)(=O)c1ccc(S(=O)(=O)Nc2c(C)nn(C)c2C)cc1	-11%
Cc1ccc(-c2nnc(N3CCC(C)CC3)c3ccccc23)cc1	-8%
COc1ccc(C2=Nn3c(nnc3-c3ccncc3)SC2)cc1	-10%
COc1cccc(CNC(=O)c2cc3c(s2)-c2ccccc2OC3)c1	-24%

# Carrying on.
canonical_smiles	VDR inhibitor
CCOC(=O)c1c(C)n(C)c2ccc(OC)c(NC(=O)CN3CCN(Cc4ccccc4)CC3)c12	3%
O=C(O)CCc1nnc(SCC(=O)Nc2ccc(Br)cc2)[nH]c1=O	-1%
COCCn1c(SCc2ccc(OC)c(F)c2)nnc1-c1ccncc1	5%
CC(=O)c1cc(-c2ccccc2)n(CC(=O)Nc2cc(C)cc(C)c2)c1C	-8%
Cc1ccccc1OCC(=O)Nc1cccc2nsnc12	8%
Cc1cccc(C(=O)OC(C)C(=O)Nc2ccc(S(=O)(=O)Nc3ncccn3)cc2)c1C (centres undefined)	2%
Cc1ccc(C)c(NS(=O)(=O)c2ccc3[nH]c(=O)oc3c2)c1	-14%
O=C(O)Cc1ccc(C(=O)c2ccc(Cl)cc2Cl)s1	-24%

# Following part:
canonical_smiles	VDR inhibitor
Cc1nc(-c2ccc(Cl)cc2)sc1C1(C)CC(c2cccc(F)c2)=NO1 (centres undefined)	-17%
Cc1ccc(NC(=O)COC(=O)CN2C(=O)NC3(CCCC3)C2=O)cc1F	3%
O=C(NNC(=S)Nc1ccccc1)c1ccccc1[N+](=O)[O-]	12%
COc1ccc(CCNC(=O)C2CCCN2C(=O)NC2CCCCC2)cc1OC (centres undefined)	21%
O=C(Nc1ccccc1)N1CCC(=S)Nc2ccccc21	7%
COCCCNS(=O)(=O)c1ccc2c(c1)CCN2C(C)=O	?
O=C(CSc1nc2c(c(=O)[nH]1)CCCC2)Nc1ccc(Cl)cc1F	5%
Brc1ccc(N=NNc2ccccc2)cc1	0%

# Further records follow:
canonical_smiles	VDR inhibitor
Cc1ccc(-c2nnc(Nc3ccc4c(c3)nc(C)n4C)c3ccccc23)cc1	11%
COC(=O)C(=O)/C=C(\O)c1c(C)cc(C)cc1C	-17%
Cc1c(/C(O)=C2/C(=O)C(=O)N(CCN3CCOCC3)C2c2cccnc2)cnn1-c1ccccc1 (centres undefined)	1%
COC(=O)C1CSC(C(=O)OC)N1C(=O)CN1CC(C)OC(C)C1 (centres undefined)	-22%
O=C(NC(=S)NCCC1=CCCCC1)c1ccccc1Br	-20%
COC(=O)c1cn(-c2cccc(C)n2)cn1	-4%
Cc1csc(Sc2ccc([N+](=O)[O-])cc2C(=O)OCC(=O)NC(=O)NC(C)(C)C)n1	-2%
CCOC(=O)C1=C2NC(=O)c3ccccc3N2C(=O)C1	6%

# (more compounds)
canonical_smiles	VDR inhibitor
CCOc1ccc(NC(=O)Cn2nc(Cc3cccnc3)c3ccccc3c2=O)cc1	4%
O=C(NCCC1CCCCN1S(=O)(=O)c1cccs1)C(=O)Nc1cccc(F)c1 (centres undefined)	-2%
Cc1cccc(N2C(=O)C=CC2=O)c1	50µM*
CCCCc1ccc(-c2c(C#N)c(N)nc3c2CCCC3)s1	10%
CCc1ccc(-c2cc(N)n(-c3ccccc3)n2)cc1	-1%
COCCCNC(=O)C[C@H]1C[C@H](C(=O)N2CCCCC2)[C@@]2(CCc3ccccc3)c3[nH]c4ccc(Cl)cc4c3CCN2C1=O	-9%
O=C(COc1ccccc1F)NCC(c1ccco1)N1CCCC1 (centres undefined)	1%
N#C/C(=C\Nc1ccc2c(c1)OCCO2)c1nc(-c2ccccc2)cs1	-2%

# Other results follow:
canonical_smiles	VDR inhibitor
Cc1onc(-c2ccccc2)c1C(=O)Nc1ccon1	17%
CCC(=O)Nc1ccc(Cl)c(NC(=O)c2cccc(OC)c2)c1	-13%
CCOC(=O)NN1C(=O)c2ccccc2NC1C (centres undefined)	-2%
CC(OC(=O)c1ccc(-n2cnnn2)cc1)C(=O)Nc1ccc(F)c(F)c1F (centres undefined)	2%
O=C(CSC(=S)N1CCCC1)N1CCN(S(=O)(=O)c2ccccc2F)CC1	-2%
CCOC(=O)c1sc2nc(COC(=O)c3c(F)cccc3F)[nH]c(=O)c2c1C	-19%
CC(C)=CCC/C(C)=C/CNC(=O)C[C@H]1C[C@H](C(=O)N2CCCCC2)[C@@]2(C)c3[nH]c4cc(-c5ccco5)ccc4c3CCN2C1=O	?
CCOC(=O)c1ccccc1NC(=O)C(=O)Nc1ccc2nc3n(c(=O)c2c1)CCCCC3	8%

# Continued.
canonical_smiles	VDR inhibitor
CCOC(=O)c1c(Cc2cccc(Cl)c2)c[nH]c1C	2%
CCCNC(=O)c1ccc(N2CCC3(CC2)CC(c2ccccc2)=NO3)c(NC(=O)Cc2ccc(F)cc2)c1	-5%
Nc1c(C(=O)O)sc2nc(-c3ccccc3)cc(-c3ccc(Cl)cc3)c12	-28%
CCn1c(=O)[nH]c2cc(Cl)c(Cl)cc21	-14%&-6%
CCOC(=O)C1CCN(C(c2ccc(OC)c(OC)c2)c2sc3nc(C)nn3c2O)CC1 (centres undefined)	3%
CN(CC(=O)Nc1nc2ccccc2s1)S(=O)(=O)c1ccc(Br)cc1	13%
CON/C=N/C(=S)Nc1ncc(C(F)(F)F)cc1Cl	13%
CCCn1nnnc1NCc1ccc(N2CCCC2)cc1	11%
Cc1ccc(S(=O)(=O)c2nc(S(=O)(=O)c3ccc(C)cc3)c(NC(C)C)s2)cc1	4%

# These rows are one share of the data. The share of hits here may be higher or lower than overall.
